Compound activity (PubChem)
NS1 function inh = qHTS Assay for Inhibitors of Influenza NS1 Protein Function. S. cerevisiae slowed by influenza A NS1, growth recovery by OD600. Potency, µM (doses to about 46.1 µM), for the others: at the highest dose activity, positive = more growth. 0.4% of 270,000 active. AID 2326, 2010; further: actives are rising curves; nearly all actives have a fitted effect of over 50% in size
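Compounds were scored for reversing the slow growth caused by influenza A NS1 in S. cerevisiae, measured by optical density at 600 nm. Assay medium contained 2% galactose at pH 6.0; NS1-free yeast of the same strain were the positive control.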
RE007 growth inh = qHTS Assay for Inhibitors of the HIV-1 protein Vpr; S. pombe RE007 Vpr strain, BacTiter-Glo ATP luminescence, 24 h; control for the full effect not named in the record; Potency, µM (highest dose often 92.2 µM), inactives show top-dose activity change, negative = less growth; 0.21% of 360,000 active; AID 651644, 2012; active = well fitted falling curve with a large enough effect; inconclusive = small, poorly fitted or top-dose-only effect; inactive = no such curve, though single readings can be large or run the other way;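 further: on the % scale 0 is the no-effect control and ±100 the full control effect; nearly all actives have a fitted effect of over 50% in size; the assay follows cell death caused by Vpr and the record does not say whether a fall means rescue or toxicity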
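Fission yeast RE007 carrying one integrated HIV-1 vpr copy, seeded at OD 0.01 in PMG+AL medium with 23 nL pinned compound. Grown 24 h at 30 degrees; viability read by BacTiter-Glo luminescence after 5 min.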
LASV entry inh = qHTS for Inhibitors of binding or entry into cells for Lassa Virus; Lassa virus pseudotype entry inhibition, cell reporter; control for the full effect not named in the record; Potency, µM (series often up to 37.9 µM), for inactives: at the top dose activity change, negative = inhibition, actives largely listed as inhibitors; 1.2% of 300,000 active; AID 540256, 2011; active means well fitted inhibition curve with a large enough effect; inconclusive means small, poorly fitted or top-dose-only effect, or effect the other way; inactive means flat fitted curve, though single readings scatter; tested in HEK293 cells; further: on the % scale 0 is the no-effect control and ±100 the full control effect; nearly all actives have a fitted effect of over 50% in size; luciferase read-out
SARS PLpro yeast = qHTS of Yeast-based Assay for SARS-CoV PLP; Potency, µM (doses to about 32.9 µM), for the others: at the highest dose activity, positive = growth rescue; 0.19% of 330,000 active; S. cerevisiae expressing SARS-CoV PLpro, growth rescue; control for the full effect not named in the record; AID 485353, 2010; further: 0% is about no effect; nearly all actives have a fitted effect of over 55% in size; growth read by luminescence after 48 h
Marburg entry inh = qHTS for inhibitors of binding or entry into cells for Marburg Virus. Marburg virus pseudotyped entry inhibition, cell reporter; control for the full effect not named in the record; about a third of the inactives were read at about 46 µM. Potency, µM (doses to about 37.8 µM), for the others: at the top dose activity change, negative = inhibition, actives largely listed as inhibitors. 1.8% of 300,000 active. AID 540276, 2011; active = well fitted inhibition curve with a large enough effect; inconclusive = small, poorly fitted or top-dose-only effect, or effect the other way; inactive = flat fitted curve, though single readings scatter; tested in HEK293 cells; about a fifth of its hits are not listed in these tables; further: on the % scale 0 is the no-effect control and ±100 the full control effect; luciferase read-out
StopGo reporter = High Throughput Screening for Foot and Mouth Disease Virus Antivirals. human cells with a luciferase reporter of 2A StopGo recoding; control for the full effect not named in the record. Potency, µM (titrated, usually from 57.9 µM), inactives show at the highest dose signal change, negative = less light. 1.2% of 410,000 active; active = well fitted falling curve with a large enough effect; inconclusive = small, poorly fitted or top-dose-only effect; inactive = no such curve, though single readings can be large or run the other way; tested in HEK293T cells; further: on the % scale 0 is the no-effect control and ±100 the full control effect; nearly all actives have a fitted effect of over 45% in size; luciferase light after 4 h
Cruzain inh Det = qHTS Assay for Promiscuous and Specific Inhibitors of Cruzain (with detergent); purified cruzain, Z-FR-AMC fluorescence, 0.01% Triton; Potency, µM, for the others: max response, negative = inhibition, usual class: inhibitors; 0.43% of 200,000 active; AID 1478, 2009; active means well fitted curve in the direction sought with a large enough effect; inconclusive means small, poorly fitted or top-dose-only effect, or another doubt; inactive means no such curve, though single readings can be large; an effect the other way counts as inactive or inconclusive;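 further: plate controls were neutral wells for no effect and buffer without enzyme for full effect; nearly all actives have a fitted effect of over 40% in size; top concentration of the series not given in the record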
Target sequence (P25779 123-467 limits assumed): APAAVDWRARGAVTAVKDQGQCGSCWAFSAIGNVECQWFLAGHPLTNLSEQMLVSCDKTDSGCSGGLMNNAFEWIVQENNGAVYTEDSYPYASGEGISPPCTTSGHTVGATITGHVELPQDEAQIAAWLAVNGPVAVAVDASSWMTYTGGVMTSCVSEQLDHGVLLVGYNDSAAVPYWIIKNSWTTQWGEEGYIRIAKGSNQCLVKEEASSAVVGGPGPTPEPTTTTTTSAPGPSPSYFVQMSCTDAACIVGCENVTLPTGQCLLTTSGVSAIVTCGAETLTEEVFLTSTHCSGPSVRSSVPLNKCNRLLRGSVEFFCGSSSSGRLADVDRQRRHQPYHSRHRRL
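In this qHTS format, compounds are incubated with 1.5 nM cruzain for 15 min at room temperature before 2 uM Z-FR-AMC is added. Release of AMC is followed at 360/450 nm, and progress is taken as the 60 s fluorescence difference.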
Cruzain noTriton = qHTS Assay for Promiscuous and Specific Inhibitors of Cruzain (without detergent); Potency, µM, for the others: max response, negative = inhibition, hits mostly inhibitors; Cruzipain (Trypanosoma cruzi), P25779; 2.3% of 200,000 active; AID 1476, 2009; purified cruzain, Z-FR-AMC fluorescence, no detergent; active means well fitted curve in the direction sought with a large enough effect; inconclusive means small, poorly fitted or top-dose-only effect, or another doubt; inactive means no such curve, though single readings can be large; an effect the other way counts as inactive or inconclusive;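 further: plate controls were enzyme without inhibitor for no effect and buffer without enzyme for full effect; nearly all actives have a fitted effect of over 40% in size; top concentration of the series not given in the record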
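Detergent-free condition (0.00005% Triton X-100) in acetate buffer pH 5.5 with DTT. 1.5 nM enzyme and compound were pre-mixed 15 min, then 2 uM Z-FR-AMC substrate added; reaction progress from fluorescence change between first and third reads (60 s).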
* = called active by the depositor; ? = inconclusive; nt = no result given; & = joins results of further samples; [ ] = another dose, or the depositor's remark. Unless noted, the call rests on the fitted dose curve; in most records, active means well fitted rising curve with a large enough effect; inconclusive means small, poorly fitted or top-dose-only effect; inactive means no such curve, though single readings can be large or run the other way. Potency means the concentration at half of the fitted maximal effect.

smiles,NS1 function inh,RE007 growth inh,LASV entry inh,SARS PLpro yeast,Marburg entry inh,StopGo reporter,Cruzain inh Det,Cruzain noTriton
Cn1c(SCc2ccccc2)nc(C(F)(F)F)cc1=O,-6%,-10%,-28%,-7%,?,2%,nt,nt
COc1ccc(C(=O)C[n+]2ccc3c(c2)nc(-c2ccc(OC)cc2OC)n3C)cc1,-9%,-23%,10%,-1%,11%,-22%,-2.5%,-7%
COc1ccc(S(=O)(=O)N(C)c2ccc(C(=O)NC3CCCC3)cc2)cc1,-7%,4%,?,1%,?,-18%,nt,nt
C=CCN1CCN(C(c2ccccc2OC)c2nnnn2C(C)(C)C)CC1 (configuration not stated),-2%,1%,-2%,0%,-1%[46.1 µM],10%,nt,nt
CC(C)=CCc1c(O)c(CC=C(C)C)c2c(c1O)C(=O)CC(c1ccc(O)cc1)O2 (configuration not stated),-3%,-2%,nt,-4%,nt,-16%,nt,nt
CCOC(=O)c1c(-c2ccccc2)oc2ccc(OCC)cc12,-18%,?,-7%,-2%,-25%[46.1 µM],-17%,?,-21%
Cc1cc(C(=O)N[C@H](c2ccccc2)[C@@]2(C)C[C@@H]2[C@@H](C)C(=O)Nc2ccc3ccccc3c2)n(C)n1,7%,1%,?,-5%,?,?,-2.0%&3.8%,-2%&1%
O=C(CSc1ccc(Cl)cc1)Nc1ccccc1N1CCN(C(=O)c2ccc(Cl)cc2)CC1,?,7%,?,28%,?,?,-2.8%,?
CCC(C)C(=O)Nc1ccc([N+](=O)[O-])cc1OC (configuration not stated),-2%,-13%,-4%[46.1 µM],1%,-2%[46.1 µM],-4%,nt,nt
COC(=O)c1sc(-c2cccs2)cc1N,-3%,1%,-13%[46.1 µM],-9%,?,28%,nt,nt
COc1cc(C(=O)O/N=C2/C=CC(=O)C(C)=C2C)cc(OC)c1OC,2%,5%,-3%,-2%,0%[46.1 µM],?,-2.8%,13%
C/C(=N\NC(=O)c1ccccc1O)c1cccc(NC(=O)c2ccccc2)c1,-33%,-1%,nt,-1%,nt,29%,nt,nt
O=C(Nc1ccc(Cl)cc1)Nc1ccc(Br)cn1,-1%,-16%,?,-3%,3%[46.1 µM],16%,nt,nt
Cc1oc(-c2ccccc2)nc1CNC(=O)NC1CCCCC1,nt,nt,22%[46.1 µM],nt,nt,12%,0.6%,-5%
COc1ccc(NC(=O)N2CCC(Cc3ccccc3)CC2)cc1,-2%,35%,0%,0%,10%,-1%,nt,nt
COc1ccc(Cl)cc1NC(=O)c1cc(-c2ccc(C)cc2O)n[nH]1,-1%,-2%,7%,0%,21%,1%,nt,nt
Cc1nn(Cc2ccc(Cl)cc2)c(C)c1NC(=O)/C=C/c1cnn(C)c1,-10%,-7%,0%,18%,-32%,?,-1.5%,-1%
C/C(=N\NS(=O)(=O)c1ccc(C)cc1)c1ccc(Br)s1,3%,20%,-2%,2%,-12%,64%[activator],-5.1%,-9%
CCOC(=O)c1cccc(OCC(O)CNCCOc2ccccc2F)c1 (configuration not stated),-5%,-9%,3%[46.1 µM],9%,-17%[46.1 µM],-5%,nt,nt
Cc1ccccc1OCC(=O)Nc1cnn(CCCC(=O)O)c1,8%,8%,14%[46.1 µM],0%,10%[46.1 µM],15%,nt,nt
C=CC[C@@H]1C=C[C@H](O/N=C/[C@@H](NS(=O)(=O)c2ccc(C)cc2)[C@H](C)/C=C/CC(=O)OC)[C@@H](CO)O1,-28%,nt,?,-10%,20%,nt,-1.2%,16%
COc1ccc(Cl)cc1NC(=O)CSc1nc(NS(=O)(=O)c2ccc(C)cc2)cc(=O)[nH]1,11%,2%,-12%,15%,3%[46.1 µM],-9%,nt,nt
Cc1c(Cc2ccccc2)c(=O)oc2cc(OCC(=O)N[C@@H](Cc3ccccc3)C(=O)O)ccc12,?,16%,nt,-2%,nt,-9%,nt,nt
CC(=O)Nc1ccc(NC(=O)C(C)OC(=O)CNC(=O)c2sc3ccccc3c2Cl)cc1 (configuration not stated),-4%,2%,3%,11%,7%,1%,11µM*,10µM*
O=C(CSc1nnc(Cc2cccs2)n1CCc1ccccc1)N1CCCc2ccccc21,-4%,7%,?,-4%,?,-22%,-2.1%,-11%
CC(Oc1ccccc1)C(=O)Nc1ccccc1C(=O)OCc1cc(=O)n2nc(C(C)C)sc2n1 (configuration not stated),nt,nt,-2%[46.1 µM],nt,nt,-28%,-0.2%,-8%
Cc1ccccc1Cn1c([N+](=O)[O-])cnc1C,8%,0%,4%,5%,0%,nt,-3.2%,0%
CCNC(=O)C(=O)NCCC1CCCCN1S(=O)(=O)c1cccs1 (configuration not stated),nt,1%,-9%,1%,9%,-15%,nt,nt
COc1ccc(CC2(CO)CCN(Cc3ccc(OC(F)(F)F)cc3)CC2)cc1,2%,-5%,-16%[46.1 µM],1%,?,-7%,nt,nt
CCCCn1c(=NC(=O)c2ccc3c(c2)OCO3)c(C#N)cc2c(=O)n3cccc(C)c3nc21,-56%,3%,-6%,0%,16%,?,-3.4%,?
Cc1c(Cl)cccc1NC(=S)N1CCCCCC1,-2%,3%,-2%[46.1 µM],14%,-2%[46.1 µM],24%,nt,nt
COc1ccc(-c2c(NC(=O)c3ccco3)n(C)c3ccccc3c2=O)cc1,-9%,7%,4%,-2%,?,8%,-6.5%,6%
O=S(=O)(c1ccc2oc3ccc(S(=O)(=O)N4CCCCC4)cc3c2c1)N1CCCCC1,3%,-29%,11%,?,8%,-8%,-3.5%,-27%
COC(=O)N1c2ccccc2C=Cc2ccccc21,3%,3%,?,0%,?,-14%,nt,nt
Fc1ccc(-c2nnc3n2CCCCC3)cc1,nt,-17%,1%,1%,3%[46.1 µM],-6%,nt,nt
O=C1NC(=O)C(CC(=O)N(c2ccccc2)C2(C(=O)NC3CCCC3)CCCCC2)N1 (configuration not stated),0%,6%,-9%,2%,0%[46.1 µM],-21%,2.5%,5%
O=C(C#Cc1ccccc1)c1ccc([N+](=O)[O-])cc1,-242%,-26%,?,-40%,-21%,22µM*,-21%,-12%
CC1(C)CC(=O)C2=C(C1)OC(N)=C(C#N)C2C#Cc1ccccc1 (configuration not stated),-12%,5.6µM*,-13%,-37%,?,?,-2.1%,3%
NC(=O)CNc1n[nH]c(=S)[nH]c1=O,1%,3%,10%[46.1 µM],1%,3%[46.1 µM],9%,nt,nt
COc1ccc(NC2Oc3cc4c(cc3C(c3cc(OC)c(OC)c(OC)c3)C2C)OCO4)cc1 (configuration not stated),nt,7%,?,nt,?,-23%,nt,nt
c1ccc(CNc2c3c(nc4ncnn24)CCCC3)nc1,-2%,0%,-16%,-1%,-7%,-12%,-2.7%,-8%
CO/N=C/C=C1/N(C)c2ccccc2C1(C)C,nt,5%,-30%[46.1 µM],-6%,20%[46.1 µM],-7%,nt,nt
Cc1cc(C(F)F)n2nc(C(=O)Nc3ccc(C(C)C)cc3)nc2n1,nt,nt,-10%[46.1 µM],nt,?,22%,-3.0%,5%
COc1ccccc1C(=O)Nc1nnc(SCc2cc(=O)c3ccccc3[nH]2)s1,nt,nt,-29%[46.1 µM],nt,nt,22µM*,-1.5%,20%
Cc1cc(NC(=O)CON=C(N)CC(=O)Nc2ccccc2Cl)ccc1Br,nt,11%,10%,-5%,-4%,14%,nt,nt
COc1ccc(/C=C/C(=O)Oc2cc(O)cc(O)c2)cc1,5%,0%,6%[46.1 µM],-2%,7%[46.1 µM],0%,nt,nt
COc1ccc(N(CC(=O)Nc2cc(C)on2)S(=O)(=O)c2cc(C)ccc2C)cc1,-102%,3%,-26%,-3%,?,41%[activator],-3.4%,-11%
CCOc1ccc2nc(Cl)c(C3CC(c4ccccc4)=NN3C(=O)c3cccs3)cc2c1 (configuration not stated),16%,-10%,-2%,-15%,0%,1%,2.3%,7.9µM*

Some entries already given, showing only Cruzain inh Det and LASV entry inh:
Compound | Cruzain inh Det | LASV entry inh
COc1ccc(N(CC(=O)Nc2cc(C)on2)S(=O)(=O)c2cc(C)ccc2C)cc1 | -3.4% | -26%
CCOc1ccc2nc(Cl)c(C3CC(c4ccccc4)=NN3C(=O)c3cccs3)cc2c1 (configuration not stated) | 2.3% | -2%

As a short view, 5 of the compounds above.
smiles,NS1 function inh,RE007 growth inh,LASV entry inh,SARS PLpro yeast,Marburg entry inh,StopGo reporter,Cruzain inh Det,Cruzain noTriton
Cc1cc(C(F)F)n2nc(C(=O)Nc3ccc(C(C)C)cc3)nc2n1,nt,nt,-10%[46.1 µM],nt,?,22%,-3.0%,5%
COc1ccccc1C(=O)Nc1nnc(SCc2cc(=O)c3ccccc3[nH]2)s1,nt,nt,-29%[46.1 µM],nt,nt,22µM*,-1.5%,20%
Cc1cc(NC(=O)CON=C(N)CC(=O)Nc2ccccc2Cl)ccc1Br,nt,11%,10%,-5%,-4%,14%,nt,nt
COc1ccc(/C=C/C(=O)Oc2cc(O)cc(O)c2)cc1,5%,0%,6%[46.1 µM],-2%,7%[46.1 µM],0%,nt,nt
COc1ccc(N(CC(=O)Nc2cc(C)on2)S(=O)(=O)c2cc(C)ccc2C)cc1,-102%,3%,-26%,-3%,?,41%[activator],-3.4%,-11%

Hits appear at their usual frequency; overall some 4.7% were active at least once.
